Ran importin: inhibitors of Ran–importin-beta complex formation, primary screen, biochemical, CFP-Ran/YFP-importin-beta FRET, RCC1, cell-free (AID 434961). Regulator of chromosome condensation (Homo sapiens) + GTP-binding nuclear protein Ran …. CFP-Ran/YFP-importin-beta FRET, cell-free; stronger effect = higher value. inhibition, %. 7,700 compounds, 0.2% hits;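 active = more than half of the replicate wells above 15% inhibition; inconclusive = exactly half above it; inactive = fewer than half above it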;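 also: 0% = DMSO wells and 100% inhibition = RanGDP control wells on each plate; stock of unstated strength diluted about 400-fold; mean of two wells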
The depositor's hits bear a star; ? = inconclusive. An excerpt; count on the stated rates, not on these rows.

SMILES | Ran importin
Cc1noc(C)c1NC(=O)N(C)C[C@@H]1Oc2ccc(NC(=O)Cn3cnnn3)cc2C(=O)N([C@@H](C)CO)C[C@H]1C | 8.6
Cc1noc(C)c1NC(=O)N(C)C[C@H]1Oc2ccc(NS(=O)(=O)c3cn(C)cn3)cc2CC(=O)N([C@@H](C)CO)C[C@@H]1C | 4.1
C[C@@H]1CN([C@H](C)CO)C(=O)Cc2cc(NC(=O)Cn3cnnn3)ccc2O[C@@H]1CN(C)C(=O)Nc1cccc2ccccc12 | 5.8
C[C@H](CO)N1C[C@H](C)[C@H](CN(C)C(=O)Nc2ccccc2)Oc2ncc(Br)cc2C1=O | -1.2
C[C@@H]1CN([C@H](C)CO)C(=O)c2cc(NC(=O)c3ccncc3)ccc2O[C@H]1CN(C)C(=O)Nc1ccc(F)cc1 | 4.1
C[C@@H]1CN([C@H](C)CO)C(=O)c2cc(NC(=O)Nc3ccc4c(c3)OCO4)ccc2O[C@@H]1CN(C)CC1CCCCC1 | -2.5
CC(C)NC(=O)Nc1ccc2c(c1)C(=O)N([C@@H](C)CO)C[C@H](C)[C@H](CN(C)Cc1ccc(C(=O)O)cc1)OCCCC[C@H](C)O2 | 2.2
C[C@H](CO)N1C[C@H](C)[C@H](CN(C)C(=O)Nc2cccc(Oc3ccccn3)c2)OCc2cn(nn2)CCCC1=O | -0.8
CNC[C@@H]1Oc2ccc(NC(=O)Nc3ccc(F)cc3)cc2C(=O)N([C@@H](C)CO)C[C@@H]1C | 4.8
COc1ccc(S(=O)(=O)N(C)C[C@@H]2Oc3ccc(NC(=O)C4CC4)cc3C(=O)N([C@H](C)CO)C[C@@H]2C)cc1 | 3.7
CNC[C@@H]1Oc2ccc(NC(=O)Nc3cccc4ccccc34)cc2CC(=O)N([C@@H](C)CO)C[C@H]1C | -1.2
C[C@@H]1CCCCO[C@H](CN(C)Cc2ccccc2)[C@H](C)CN([C@H](C)CO)C(=O)c2cc(N(C)C)ccc2O1 | -9.4
CC(C)NC(=O)Nc1ccc2c(c1)C(=O)N([C@@H](C)CO)C[C@@H](C)[C@H](CN(C)S(=O)(=O)c1ccccc1)OCCCC[C@H](C)O2 | -0.2
C[C@@H]1CN([C@@H](C)CO)C(=O)c2cc(NC(=O)C3CC3)ccc2O[C@H]1CN(C)S(=O)(=O)c1cccs1 | -1.6
C[C@@H]1CN([C@@H](C)CO)C(=O)c2cc(NC(=O)NC3CCCCC3)ccc2O[C@H]1CN(C)C(=O)Nc1ccc(C(F)(F)F)cc1 | 0.4
CNC[C@@H]1Oc2c(NS(=O)(=O)c3ccc(Cl)cc3)cccc2C(=O)N([C@H](C)CO)C[C@@H]1C | -0.6
C[C@@H]1CN([C@@H](C)CO)C(=O)c2cc(NS(=O)(=O)c3cccs3)ccc2O[C@@H](C)CCCCO[C@H]1CN(C)C(=O)CCC(F)(F)F | 2.4
C[C@@H]1CN([C@H](C)CO)C(=O)c2cc(NS(=O)(=O)c3ccccc3)ccc2O[C@H]1CN(C)C(=O)Nc1cccc2ccccc12 | -0.7
C[C@H](CO)N1C[C@H](C)[C@@H](CN(C)C(=O)Nc2cccc3ccccc23)Oc2c(NS(=O)(=O)c3cccs3)cccc2C1=O | -2.3
C[C@@H]1CN([C@@H](C)CO)C(=O)c2cccc(NC(=O)c3ccncc3)c2O[C@H]1CN(C)Cc1ccc(C(F)(F)F)cc1 | -0.6
C[C@@H]1CN([C@H](C)CO)C(=O)CCCn2cc(nn2)CO[C@H]1CN(C)C(=O)C1CC1 | ?
CC(C)NC(=O)Nc1ccc2c(c1)C(=O)N([C@@H](C)CO)C[C@@H](C)[C@@H](CN(C)Cc1ccc(C(=O)O)cc1)OCCCC[C@@H](C)O2 | -4.4
C[C@@H]1CN([C@H](C)CO)C(=O)c2cccc(NC(=O)NC3CCCCC3)c2O[C@@H]1CN(C)C | -2.4
C[C@H]1CCCCO[C@H](CN(C)C(=O)Nc2ccccc2)[C@@H](C)CN([C@@H](C)CO)C(=O)c2cc(NC(=O)c3ccccc3)ccc2O1 | 2.8
C[C@H]1CCCCO[C@@H](CN(C)C(=O)Nc2ccccc2)[C@@H](C)CN([C@@H](C)CO)C(=O)c2cc(NC(=O)CCC(F)(F)F)ccc2O1 | 0.4
C[C@@H]1CN([C@H](C)CO)C(=O)c2cc(NC(=O)Cc3ccccc3)ccc2O[C@@H](C)CCCCO[C@@H]1CN(C)C(=O)CCC(F)(F)F | 4.9
C[C@H](CO)N1C[C@H](C)[C@@H](CN(C)S(=O)(=O)c2cn(C)cn2)Oc2ccc(NC(=O)NC3CCCCC3)cc2C1=O | -3.0
C[C@@H]1CN([C@@H](C)CO)C(=O)c2cccc(NS(C)(=O)=O)c2O[C@@H]1CN(C)Cc1ccc2c(c1)OCO2 | 2.9
C[C@H]1CN([C@@H](C)CO)C(=O)c2cc(N(C)C)ccc2O[C@H]1CN(C)S(=O)(=O)c1ccccc1 | -2.7
C[C@@H]1CN([C@H](C)CO)C(=O)c2cc(NS(=O)(=O)c3cccs3)ccc2O[C@@H](C)CCCCO[C@H]1CN(C)Cc1ccccc1 | 1.7
C[C@H](CO)N1C[C@H](C)[C@H](CN(C)C)OCCCC[C@H](C)Oc2ccc(NS(=O)(=O)c3cn(C)cn3)cc2C1=O | -2.9
C[C@@H]1CN([C@H](C)CO)C(=O)c2cccc(NC(=O)c3ccncc3)c2O[C@@H]1CN(C)S(=O)(=O)c1cn(C)cn1 | -1.5
C[C@@H]1CN([C@H](C)CO)C(=O)Cc2cc(NC(=O)CCN3CCOCC3)ccc2O[C@H]1CN(C)C(=O)Nc1ccccc1 | -1.1
CNC[C@H]1Oc2ccc(NC(=O)Nc3ccc(F)cc3)cc2C(=O)N([C@H](C)CO)C[C@@H]1C | 1.6
C[C@H]1CN([C@@H](C)CO)C(=O)CCCn2cc(nn2)CO[C@@H]1CN(C)C(=O)Nc1ccc2c(c1)OCO2 | 1.4
CC(C)NC(=O)Nc1ccc2c(c1)C(=O)N([C@@H](C)CO)C[C@H](C)[C@@H](CN(C)Cc1ccccc1)OCCCC[C@H](C)O2 | 0.3

In the list so far, these have two or more sulfur atoms:
SMILES | Ran importin
C[C@@H]1CN([C@@H](C)CO)C(=O)c2cc(NC(=O)C3CC3)ccc2O[C@H]1CN(C)S(=O)(=O)c1cccs1 | -1.6
C[C@@H]1CN([C@@H](C)CO)C(=O)c2cc(NS(=O)(=O)c3cccs3)ccc2O[C@@H](C)CCCCO[C@H]1CN(C)C(=O)CCC(F)(F)F | 2.4
C[C@H](CO)N1C[C@H](C)[C@@H](CN(C)C(=O)Nc2cccc3ccccc23)Oc2c(NS(=O)(=O)c3cccs3)cccc2C1=O | -2.3
C[C@@H]1CN([C@H](C)CO)C(=O)c2cc(NS(=O)(=O)c3cccs3)ccc2O[C@@H](C)CCCCO[C@H]1CN(C)Cc1ccccc1 | 1.7

Next part.
SMILES | Ran importin
C[C@H]1CN([C@@H](C)CO)C(=O)Cc2cc(NS(C)(=O)=O)ccc2O[C@@H]1CN(C)C(=O)Nc1ccccc1 | 5.2
C[C@@H]1CN([C@@H](C)CO)C(=O)Cc2cc(N(C)C)ccc2O[C@@H]1CN(C)C(=O)Nc1ccccc1 | -0.9
COc1ccc(CN(C)C[C@@H]2Oc3ccc(NC(=O)Cc4cn(C)c5ccccc45)cc3CC(=O)N([C@H](C)CO)C[C@@H]2C)cc1 | -3.1
C[C@@H]1CCCCO[C@@H](CN(C)C(=O)c2ccncc2)[C@@H](C)CN([C@H](C)CO)C(=O)c2cc(NC(=O)CCC(F)(F)F)ccc2O1 | 1.2
C[C@@H]1CCCCO[C@@H](CN(C)C)[C@@H](C)CN([C@H](C)CO)C(=O)c2cc(NC(=O)c3ccncc3)ccc2O1 | -1.2
COc1ccc(S(=O)(=O)N(C)C[C@@H]2Oc3ccc(NC(=O)Cc4ccccc4)cc3C(=O)N([C@@H](C)CO)C[C@@H]2C)cc1 | -3.0
Cc1noc(C)c1NC(=O)N(C)C[C@H]1Oc2ccc(NC(=O)CCCN(C)C)cc2C(=O)N([C@@H](C)CO)C[C@@H]1C | -0.4
C[C@@H]1CCCCO[C@@H](CN(C)C(=O)CCC(F)(F)F)[C@@H](C)CN([C@H](C)CO)C(=O)c2cc(NC(=O)CCC(F)(F)F)ccc2O1 | -2.4
C[C@@H]1CN([C@@H](C)CO)C(=O)c2cccc(NC(=O)NC3CCCCC3)c2O[C@H]1CN(C)Cc1ccncc1 | -2.4
CC(C)NC(=O)Nc1ccc2c(c1)C(=O)N([C@H](C)CO)C[C@H](C)[C@@H](CN(C)C)OCCCC[C@H](C)O2 | -2.0
C[C@@H]1CCCCO[C@H](CN(C)S(=O)(=O)c2cccs2)[C@H](C)CN([C@H](C)CO)C(=O)c2cc(NS(C)(=O)=O)ccc2O1 | -5.4
C[C@H](CO)N1C[C@H](C)[C@@H](CN(C)C)OCCCC[C@H](C)Oc2ccc(N(C)C)cc2C1=O | 4.6
Cc1noc(C)c1S(=O)(=O)N(C)C[C@H]1Oc2c(NC(=O)c3nc4ccccc4s3)cccc2C(=O)N([C@@H](C)CO)C[C@H]1C | 2.8
CNC[C@@H]1Oc2ccc(NC(=O)CCN3CCOCC3)cc2CC(=O)N([C@@H](C)CO)C[C@@H]1C | 0.5
CNC[C@H]1Oc2ccc(NC(=O)CCCN(C)C)cc2C(=O)N([C@@H](C)CO)C[C@@H]1C | 0.0
CNC[C@H]1Oc2ccc(NS(=O)(=O)c3cccs3)cc2CC(=O)N([C@H](C)CO)C[C@@H]1C | -3.0
Cc1cc(C(=O)Nc2cccc3c2O[C@@H](CN(C)C(=O)Nc2ccccc2)[C@H](C)CN([C@@H](C)CO)C3=O)n(C)n1 | 1.7
COc1ccc(CN(C)C[C@H]2Oc3c(NC(=O)Nc4ccc(OC)cc4)cccc3C(=O)N([C@@H](C)CO)C[C@H]2C)cc1 | -5.8
Cc1noc(C)c1NC(=O)Nc1ccc2c(c1)C(=O)N([C@H](C)CO)C[C@H](C)[C@H](CN(C)C)OCCCC[C@@H](C)O2 | ?
COc1ccc(CN(C)C[C@@H]2Oc3ccc(NC(=O)Nc4ccc(F)cc4)cc3C(=O)N([C@@H](C)CO)C[C@H]2C)cc1 | -3.9
COc1ccc(NC(=O)Nc2ccc3c(c2)C(=O)N([C@H](C)CO)C[C@H](C)[C@H](CN(C)S(=O)(=O)c2ccc(OC)cc2)O3)cc1 | -4.4
C[C@H](CO)N1C[C@H](C)[C@H](CN(C)C)Oc2ncc(-c3ccccc3)cc2C1=O | ?
Cc1noc(C)c1S(=O)(=O)Nc1ccc2c(c1)CC(=O)N([C@@H](C)CO)C[C@@H](C)[C@@H](CN(C)Cc1ccc(C(F)(F)F)cc1)O2 | 3.3
COc1ccc(S(=O)(=O)N(C)C[C@@H]2Oc3c(NS(=O)(=O)c4ccccc4)cccc3C(=O)N([C@@H](C)CO)C[C@@H]2C)cc1 | -1.7
COc1ccc(CN(C)C[C@H]2OCCCC[C@H](C)Oc3ccc(NC(=O)Nc4c(C)noc4C)cc3C(=O)N([C@@H](C)CO)C[C@@H]2C)cc1 | 4.9
C[C@@H]1CCCCO[C@@H](CN(C)S(=O)(=O)c2cccs2)[C@@H](C)CN([C@@H](C)CO)C(=O)c2cc(NC(=O)c3ccncc3)ccc2O1 | 5.5
C[C@H]1CN([C@@H](C)CO)C(=O)c2cccc(NS(=O)(=O)c3ccc(Cl)cc3)c2O[C@H]1CN(C)CC1CC1 | 1.2
C[C@H](CO)N1C[C@H](C)[C@@H](CN(C)Cc2ccccc2)Oc2ccc(NC(=O)CCCN(C)C)cc2CC1=O | -0.9
C[C@H]1CN([C@@H](C)CO)C(=O)c2cc(NC(=O)Nc3ccc(F)cc3)ccc2O[C@H]1CN(C)C | -1.0
C[C@H](CO)N1C[C@H](C)[C@@H](CN(C)CC2CC2)Oc2c(NC(=O)Nc3cccc4ccccc34)cccc2C1=O | 0.0
C[C@H](CO)N1C[C@H](C)[C@@H](CN(C)C(=O)Nc2ccc(F)cc2)Oc2ccc(NS(=O)(=O)c3ccc(Cl)cc3)cc2C1=O | 1.0
C[C@H]1CN([C@@H](C)CO)C(=O)c2cc(NC(=O)Nc3ccccc3)ccc2O[C@@H]1CN(C)C(=O)Nc1ccccc1 | 4.2
COc1ccc(NC(=O)Nc2cccc3c2O[C@@H](CN(C)C)[C@H](C)CN([C@H](C)CO)C3=O)cc1 | -4.9
C[C@H](CO)N1C[C@H](C)[C@@H](CN(C)C(=O)c2ccncc2)OCCCC[C@H](C)Oc2ccc(NC(=O)Cc3ccccc3)cc2C1=O | -0.5
C[C@H]1CN([C@@H](C)CO)C(=O)c2cccc(NC(=O)C3CCOCC3)c2O[C@@H]1CN(C)C(=O)Nc1ccc2c(c1)OCO2 | -2.8
C[C@H](CO)N1C[C@H](C)[C@H](CN(C)C(=O)NC2CCCC2)Oc2ncc(/C=C/c3ccccc3)cc2C1=O | 2.0
C[C@@H]1CN([C@H](C)CO)C(=O)c2cccc(NS(=O)(=O)c3cccs3)c2O[C@H]1CN(C)C | -1.2
C[C@H](CO)N1C[C@H](C)[C@@H](CN(C)Cc2ccc(C(=O)O)cc2)Oc2c(NC(=O)Nc3ccc(C(F)(F)F)cc3)cccc2C1=O | -2.4

An excerpt from above in order of count of non-hydrogen atoms, smallest number first.
SMILES | Ran importin
C[C@@H]1CN([C@H](C)CO)C(=O)c2cc(NC(=O)c3ccncc3)ccc2O[C@H]1CN(C)C(=O)Nc1ccc(F)cc1 | 4.1
COc1ccc(CN(C)C[C@@H]2Oc3ccc(NC(=O)Nc4ccc(F)cc4)cc3C(=O)N([C@@H](C)CO)C[C@H]2C)cc1 | -3.9
Cc1noc(C)c1S(=O)(=O)Nc1ccc2c(c1)CC(=O)N([C@@H](C)CO)C[C@@H](C)[C@@H](CN(C)Cc1ccc(C(F)(F)F)cc1)O2 | 3.3

High-throughput results from PubChem BioAssay.
